KCNQ2 enhance: potentiators of rat KCNQ2 potassium channel | AID 2239, 2010 | Potassium voltage-gated channel subfamily KQT member 2 (Rattus norvegicus), O88943 | B-score at 10 µM | CHO-K1 KCNQ2, FluxOR thallium flux fluorescence; hits give high values | 310,000 tested, 0.54% active;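 active = fluorescence ratio B-score at least 3 SD of library B-scores, with initial fluorescence B-score within 3 SD, cut at about 5.3 in these data; same plate scores as AID 2156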;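 note: B-score of peak minus minimum over baseline fluorescence ratio after K+ and Tl+ stimulus; positive B-score means potentiation of KCNQ2 with more thallium influx and brighter signal; only the inactives scoring about 0 or higher are listed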
Target sequence (O88943 whole entry, looked up): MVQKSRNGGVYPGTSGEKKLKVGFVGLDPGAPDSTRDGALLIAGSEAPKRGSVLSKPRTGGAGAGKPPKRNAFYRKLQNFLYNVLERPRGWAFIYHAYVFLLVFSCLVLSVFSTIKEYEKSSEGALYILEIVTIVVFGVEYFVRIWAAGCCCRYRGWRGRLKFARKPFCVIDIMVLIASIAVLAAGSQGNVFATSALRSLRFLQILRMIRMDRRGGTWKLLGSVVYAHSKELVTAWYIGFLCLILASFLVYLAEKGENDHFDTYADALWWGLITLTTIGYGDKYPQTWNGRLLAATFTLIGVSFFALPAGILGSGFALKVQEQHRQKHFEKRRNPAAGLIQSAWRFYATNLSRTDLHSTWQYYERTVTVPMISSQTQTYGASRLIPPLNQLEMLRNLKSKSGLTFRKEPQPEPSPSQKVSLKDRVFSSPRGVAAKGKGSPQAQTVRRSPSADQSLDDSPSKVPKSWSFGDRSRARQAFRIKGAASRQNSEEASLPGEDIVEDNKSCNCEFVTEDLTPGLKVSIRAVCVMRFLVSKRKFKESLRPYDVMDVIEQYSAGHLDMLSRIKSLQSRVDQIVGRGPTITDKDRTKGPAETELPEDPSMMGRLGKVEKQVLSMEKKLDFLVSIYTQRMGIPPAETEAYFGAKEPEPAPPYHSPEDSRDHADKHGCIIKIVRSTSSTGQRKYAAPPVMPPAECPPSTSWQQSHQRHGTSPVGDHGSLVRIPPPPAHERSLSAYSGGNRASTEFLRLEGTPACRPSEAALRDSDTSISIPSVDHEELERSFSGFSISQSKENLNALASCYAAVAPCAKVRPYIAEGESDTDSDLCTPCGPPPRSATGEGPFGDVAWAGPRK
KCNQ2 enhance baseline: recorded beside KCNQ2 enhance, whose call it bears; B-score; compound at 10 µM; measured here: initial fluorescence intensity artifact check;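 brightness before thallium and not channel activity; 0 = typical well and far values either way flag optical interference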
An asterisk follows results filed as active.

KCNQ2 enhance	KCNQ2 enhance baseline	SMILES
1.44	-0.73	CCOc1ncccc1C(=O)OCc1cccc([N+](=O)[O-])c1
1.25	-0.1	CC(NC(=O)c1cc2ccccc2oc1=O)c1ccccc1 (centres undefined)
0.36	-0.85	CC(NC(=S)N1CCOCC1)c1ccccc1 (centres undefined)
0.64	0.2	CNc1c(N=Cc2cccnc2)c(=O)n(C)c(=O)n1C
0.54	-1.41	CCC(=O)c1ccc(OCC(O)CN2CCN(c3cccc(C(F)(F)F)c3)CC2)cc1 (centres undefined)
1.68	-0.71	CCC(NC(=O)NCCCn1ccnc1)(C(F)(F)F)C(F)(F)F
0.92	0	COc1ccccc1N1CCN(C(=O)CSc2nc(N)cc(=O)[nH]2)CC1
0.04	0	COc1cccc(C(=O)Nc2nnc(-c3cccs3)s2)c1
0.48	1.15	COc1ccc(-n2c(=S)[nH]c3sc4c(c3c2=O)CCc2ccccc2-4)cc1
0.27	-1.22	COc1ccc(OCc2cc(C(=O)NCC3CCOCC3)no2)c(Cl)c1
4.03	-0.4	Cc1cc(Oc2ccc3ccccc3c2)nc(SCC(=O)c2ccccc2)n1
1.99	-0.25	COC(=O)c1ccc(C(=S)N2CCOCC2)cc1
3.09	0.16	CC1Sc2ccc(C(=O)Nc3ccc(S(=O)(=O)N(C)C)cc3)cc2NC1=O (centres undefined)
0.7	-1.15	C/C(=N\Nc1ccc(S(=O)(=O)N2CCOCC2)cc1[N+](=O)[O-])C(C)C
0.17	1.28	C=CCn1c(SCC(=O)Nc2cc(NC(C)=O)ccc2OC)nnc1-c1cccnc1
0.83	-0.1	S=C(Nc1ccc(Cl)cc1Cl)NC1CCCCC1
0.11	-0.33	Cc1ccn2cc(CCNS(=O)(=O)c3ccc4ccccc4c3)nc2c1
0.28	0.87	Cn1nnnc1SCC(=O)NNC(=O)c1ccc(Cl)cc1
1.17	-2.39	Cc1cc(=O)[nH]c(SCc2nc3ncccn3c2Br)n1
2.52	0.59	N#Cc1c(-c2ccco2)cc(C2CC2)nc1SCC(=O)c1ccccc1
0.2	-0.28	COC(=O)c1ccccc1NC(=O)CN1CCC(NC(=O)c2ccccc2C)CC1
1.08	1.54	O=C(CN1C(=O)NC2(CCCC2)C1=O)Nc1ccccc1N1CCCCC1
0.91	-0.22	Cc1cc(=O)oc2cc(OCc3ccc(C(=O)OCC(=O)Nc4ccc(N(C)C)cc4)cc3)ccc12
0.41	-1.41	Cc1ccc(-c2cc(C(F)(F)F)nn2-c2ccc(S(N)(=O)=O)cc2)cc1
0.49	-1.51	Cn1c(COc2ccccc2)nc2ccccc21
1.74	-0.65	Cc1cc(C)c(C(=O)CN2C(=O)NC3(CCC(C)CC3)C2=O)cc1C (centres undefined)
1.13	-0.66	O=C(NC1CC1)c1ccc(CSCc2ccccc2Cl)o1
0.73	-0.07	O=C(COC(=O)c1ccncc1)Nc1cc(Cl)ccc1Cl
0.21	0.78	CCN(CC(=O)NCc1ccc(F)cc1)C(=O)c1cc2ccccc2o1
0.08	-0.53	Cc1oc2cc(OC(C)C(=O)O)ccc2c(=O)c1Oc1ccccc1 (centres undefined)

The last 7 entries of the section before come first, to join the parts:
KCNQ2 enhance	KCNQ2 enhance baseline	SMILES
0.41	-1.41	Cc1ccc(-c2cc(C(F)(F)F)nn2-c2ccc(S(N)(=O)=O)cc2)cc1
0.49	-1.51	Cn1c(COc2ccccc2)nc2ccccc21
1.74	-0.65	Cc1cc(C)c(C(=O)CN2C(=O)NC3(CCC(C)CC3)C2=O)cc1C (centres undefined)
1.13	-0.66	O=C(NC1CC1)c1ccc(CSCc2ccccc2Cl)o1
0.73	-0.07	O=C(COC(=O)c1ccncc1)Nc1cc(Cl)ccc1Cl
0.21	0.78	CCN(CC(=O)NCc1ccc(F)cc1)C(=O)c1cc2ccccc2o1
0.08	-0.53	Cc1oc2cc(OC(C)C(=O)O)ccc2c(=O)c1Oc1ccccc1 (centres undefined)
0.01	-1.25	Cc1ccc(C(=O)OCC(=O)N2CC(C)OC(C)C2)cc1 (centres undefined)
0.97	0.1	O=C1CCCC(=O)C1=C1SCCCS1
1.53	0.12	CCOc1cc(/C=N/O)cc(Br)c1OCC(=O)NCc1ccccc1
1.14	0.02	CCCc1cc(=O)oc2c(C)c(OCC(=O)N3CCC(C(=O)O)(c4ccccc4)CC3)ccc12
1.88	-1.65	COCCn1c(C)cc(C(=O)CSc2ccc(NC(C)=O)cc2)c1C
1.23	-0.83	CCOc1ccc(/C(O)=C2/C(=O)C(=O)N(CCOCCO)C2c2ccccc2)cc1 (centres undefined)
0.22	-0.84	CCC(OC(=O)CN1C(=O)C(=O)c2ccccc21)C(=O)Nc1ccc(S(N)(=O)=O)cc1 (centres undefined)
0.22	-1.71	Cc1ccc(NC(=O)C2CCN(S(=O)(=O)c3ccc4c(c3)OCCO4)CC2)nc1
0.07	-0.02	CCCCn1c(=O)nc2n(-c3ccc(Cl)cc3)c3ccccc3cc-2c1=O
0.74	0.57	CC(C)(C)c1nc2sc3c(c2c(=O)o1)CCCC3
1.55	-1.06	CCCOc1ccc(/C=C/C(=O)N2CCOCC2)cc1
0.81	1.39	CCN(CC)S(=O)(=O)c1ccc(C(=O)NC(=S)N(CCC#N)Cc2cccnc2)cc1
0.23	-1.46	Cc1cnc(C)c(N2CCC(C(=O)NCc3cccs3)CC2)n1
0.48	0.02	CC(C)(C)C(=O)/C=C(\N)c1ccccn1
0.01	-1.3	Cc1ccc2c(c1)N(C(=O)CCC(=O)Nc1ccccc1Cl)CC(C)O2 (centres undefined)
0.12	-0.5	COc1cccc(OCC(=O)O/N=C(\N)c2ccncc2)c1
0.97	-0.24	CC1CN(Cc2nc3c(c(=O)n(C)c(=O)n3C)n2CCCc2ccccc2)CC(C)O1 (centres undefined)
0.61	0.51	CC(C)c1onc(C(=O)Nc2cccc(Cl)c2)c1[N+](=O)[O-]
0.4	-1.04	O=C(O)c1ccc(N=Nc2c(O)ccc3ncccc23)cc1
0.99	0.73	Cc1ccc(-c2nnc(SCC(N)=O)nc2-c2ccc(C)cc2)cc1
2.81	2.34	Cc1ccc2c(c1)N(C(=O)CCC(=O)N1CCOCC1)CC(C)O2 (centres undefined)
0.02	-0.41	CCOc1ccccc1NC(=O)C1CCN(S(=O)(=O)c2c(C)noc2C)CC1
2.28	-1.94	COC(=O)CCNc1n[nH]c(=O)[nH]c1=O
0.2	2.08	Cc1cc(C)c(C#N)c(SCc2ccc(F)cc2)n1
0.58	0.59	Cc1cc(NC(=O)c2cc(C)on2)n(-c2ccccc2)n1
0.96	0.8	COc1ccccc1N1CCN(C(=O)c2ccc(Cl)c(S(=O)(=O)N3CCCC3)c2)CC1
0.05	-0.07	O=C(O)c1ccc(N/N=C2/CCCc3ccccc32)cc1
0.78	0.02	Nc1cc(C(=O)OCC(=O)N2CCCC2=O)ccc1Cl
0.29	-0.51	Cc1cc(C)n(CC2CC(=O)N(c3ccc(Cl)cc3)C2=O)n1 (centres undefined)
0.86	-1.84	CC1CCCC(C)N1c1nnc(NC(=O)c2cc(-c3ccc(Br)cc3)on2)s1 (centres undefined)
0.42	0.11	Cn1c(=O)c(S(=O)C2CCCCC2)c(O)c2ccccc21 (centres undefined)
1.19	-2.63	Cc1cc(C)cc(OCC(=O)Nc2ccc(N3CCN(C(=O)c4ccco4)CC3)cc2)c1
2.45	0.05	NS(=O)(=O)c1ccc(NC(=S)N2CCN(c3ccc(Cl)c(Cl)c3)CC2)cc1
0.29	-0.72	CCCCC[n+]1ccn(C2=C([O-])c3ccccc3C(=O)/C2=N\S(=O)(=O)c2ccccc2)c1
0.74	0.02	O=C(NCC(c1ccco1)N1CCCCC1)c1ccc(COc2ccccc2)cc1 (centres undefined)
1.04	0.03	CCCCCN1C2=NCCN2c2ccccc21
0.09	0.16	Cc1cccn2c(=O)c3cc(C#N)c(=NC(=O)c4cccs4)n(CCCOC(C)C)c3nc12
0.97	0.34	O=C(CNS(=O)(=O)c1ccc(C(=O)N2CCCCC2)cc1)N1CCCCC1
2.59	-0.41	CCOC(=O)N1CCN(C(=O)c2ccccc2SCC(=O)NCC2CCCCC2)CC1
0.33	-1.07	CCOC(=O)C(C)Oc1ccsc1C(=O)OC (centres undefined)
6.27*	0.04*	Cn1nc(C(F)(F)F)c2cc(NC(=O)OCc3ccc(C(C)(C)C)cc3)sc21
1.76	-0.86	O=C1CSC(=Nc2cccc(C(=O)O)c2)N1
0.08	0.63	CC(=O)c1cccc(Nc2c([N+](=O)[O-])c(=O)oc3ccccc23)c1
1.18	-1.03	Cc1cc(Cl)ccc1OCCCC(=O)NN
0.01	0.72	CC(C)CCN(C)C1CCN(S(=O)(=O)c2cccc(C(F)(F)F)c2)CC1

Quoted at random: 5 entries already listed
KCNQ2 enhance	KCNQ2 enhance baseline	SMILES
1.74	-0.65	Cc1cc(C)c(C(=O)CN2C(=O)NC3(CCC(C)CC3)C2=O)cc1C (centres undefined)
0.97	0.34	O=C(CNS(=O)(=O)c1ccc(C(=O)N2CCCCC2)cc1)N1CCCCC1
0.12	-0.5	COc1cccc(OCC(=O)O/N=C(\N)c2ccncc2)c1
1.13	-0.66	O=C(NC1CC1)c1ccc(CSCc2ccccc2Cl)o1
0.64	0.2	CNc1c(N=Cc2cccnc2)c(=O)n(C)c(=O)n1C

Further results
KCNQ2 enhance	KCNQ2 enhance baseline	SMILES
0.15	1.52	Cc1cccc(N/C(N)=N/c2nc(C(F)(F)F)cc(=O)[nH]2)c1C
0.42	-1.48	CCC(=O)N(CCc1ccccc1)Cc1cc2ccc(OC)cc2[nH]c1=O
0.48	0.97	COc1ccc(C(=O)NNC(=S)NC(=O)c2cc(-c3ccccc3)nc3ccccc23)cc1
2.33	-0.47	COc1ccc(C(CC(=O)Nc2cc(OC)cc(OC)c2)n2cccc2)cc1 (centres undefined)
0.04	-0.22	O=C(c1cc(-c2ccccc2)nc2ccccc12)N1CCCC1
0.88	0.7	O=C(C1CCN(S(=O)(=O)c2ccc(-n3cnnn3)cc2)CC1)N1CCN(c2ccccc2)CC1
0.03	0.56	CC1CC(C)CN(C(=O)CCn2c(=O)oc3ccccc32)C1 (centres undefined)
1.15	0.28	C=CCn1c(N2CCCC2)nc2c1c(=O)[nH]c(=O)n2C
0.05	1.15	Cc1csc2nc(=O)c3ccccc3n12
1.33	-0.05	COC(=O)c1c(NC(=O)c2cccnc2)sc(C)c1C
1.68	0.55	COc1ccc(Cl)cc1S(=O)(=O)N1CCCc2ccccc21
0.52	2.61	Cc1cccnc1NC(=O)c1ccc2nc(N)sc2c1
1.21	0.36	CCN1CCCC1Cn1cnc2c([nH]c3cc(OC)ccc32)c1=O (centres undefined)
1.14	0.01	Cc1nnc2c3ccccc3c(Cl)nn12
0.46	-0.39	COc1ccc(N2C(=O)C3CCCN3C2c2cccs2)cc1 (centres undefined)
0.95	-0.84	COc1ccc(CC(O)COS(N)(=O)=O)cc1 (centres undefined)
0.95	-0.93	CN(CC(=O)Nc1ccc(Cl)c(C(F)(F)F)c1)C(=O)c1cn2ccccc2n1
0.16	-0.17	COc1ccc(Cc2nc3ccc(C(=O)N(C)CCO)cc3o2)cc1
0.24	-0.07	O=C(NCC1(N2CCOCC2)CCCCC1)c1ccc(S(=O)(=O)Nc2ccccc2F)cc1
0.16	-1.95	O=C(CNC(=O)c1ccccc1)NCC1COc2ccccc2O1 (centres undefined)
2.28	0.06	CC(=O)Nc1ccc(N(C(=O)CNC(=O)c2ccco2)C(C(=O)NC2CCCC2)c2ccco2)cc1 (centres undefined)
1.02	-0.16	Cc1ccc(CC(=O)NCCC(=O)O)cc1
0.09	-1.47	C=CCn1c(SCc2nc3ccccc3c(=O)[nH]2)nnc1-c1cc2cc(Cl)ccc2o1
0.52	-0.01	CCc1ccc(NC(=S)N(CCOC)C2CCN(C(C)=O)CC2)cc1
1.56	-0.88	NC(=O)c1sc2nc3c(cc2c1N)CCC3
0.05	-1.34	COc1ccccc1C(=O)C1CCCN(C(=O)c2cc(CC(C)C)nc(C)n2)C1 (centres undefined)
0.9	-1.21	COc1ccc(NC(=O)CSc2nnnn2-c2ccccc2F)cc1
1.31	1.73	N#CC1=C(N)c2ccccc2CC12CCCCC2
0.08	0.66	CCc1nc2ccccc2n(CC)c1=O
0.41	0.04	COc1ccc(C(O)c2coc3ccc(O)c(CN(C)C)c23)cc1 (centres undefined)
2.19	-2.07	Cc1ccc(OCCNC(=O)c2cc(-n3cnnc3)ccc2Cl)cc1C
0.2	0.35	OCC[C@@H]1C[C@H](O)[C@@H](O)[C@@]2(Cc3ccccc3O2)O1
1.7	1.61	COc1cc(/C=C2/S/C(=N/S(=O)(=O)c3ccccc3)NC2=O)c([N+](=O)[O-])cc1OC
1.67	0.41	CC(C)(C)NCC(O)Cn1cc(C=O)c2ccccc21 (centres undefined)
0.99	-0.93	O=c1oc(-c2ccccc2F)nc2c1cnn2-c1ccccc1
1.35	0.85	Cc1cccc(CN2[C@@H](CC(C)C)COCCS2(=O)=O)c1
0.98	0.88	CC(=O)Nc1sc(N/N=C\c2ccccc2)nc1-c1cccs1
2.15	-1.34	Cc1noc(C)c1CC(=O)N1CCCC(C(=O)c2ccc(C(C)(C)C)cc2)C1 (centres undefined)
1.18	-0.25	FC(F)(F)c1ccc(/C=N/NC(=S)NC2CCCCC2)cc1
2.26	-1.11	CC(C)(CN1CCCCC1)NS(=O)(=O)c1ccc(Cl)cc1
1.03	-0.56	Cc1ccc(OCC(=O)N/N=C/c2cccnc2)cc1
0.07	-0.55	COc1ccc(NC(=O)c2cn(C)c(=O)c3cc(OC)c(OC)cc23)c(OC)c1
4.3	-0.15	Cc1c(C(=O)C(=O)NCc2ccco2)c2ccccc2n1C
0.16	-0.59	COc1cc(CN2CCN(Cc3ccc(C(F)(F)F)cc3)CC2)cc(OC)c1OC
1	-0.49	COc1cccc(C(=O)NCc2ccc3c(c2)OCO3)c1OC

This is a subset; rates above refer to the full screens.
